# TRPV1 PAM = HTS Assay for Compounds that Act as Potentiators of the Vanilloid Receptor 1; Transient receptor potential cation channel subfamily V member 1 (Homo sapiens), Q8NER1; TRPV1-expressing cells, Fluo-8 calcium influx, capsaicin EC20 potentiation; host cell line not named in the record; control for the full effect not named in the record; potentiation, % at 8.33 µM; 320,000 tested, 0.02% active; AID 540277, 2011; active means potentiation above 80%; inconclusive means 30% to 80%; inactive means below 30%; note: 0% is about no effect
#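 TRPV1-expressing cells were cultured overnight at 35.5C and loaded with Fluo-8 calcium dye for 40 to 90 min at room temperature. After a 10 s baseline, compound was added and calcium influx was read kinetically for 3 min (ex 480/em 520 nm).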
# TRPML1 agonist = qHTS for Agonists of the Human Mucolipin Transient Receptor Potential 1 (TRPML1) | 410,000 tested, 0.12% active | TRPML1-expressing cells, Ca2+ dye fluorescence, FDSS; host cell line not named in the record; reference of the full effect not given here | Mucolipin-1 (Homo sapiens), Q9GZU1 | AID 624414, 2012 | activation, % (test concentration not listed); in the data active = activation above about 50%; inconclusive = about 30% to 50%; inactive = below about 30%; note: 0% is about no effect; the text of the record puts the active cut at 80%
# Target sequence (Q9GZU1 whole entry, looked up): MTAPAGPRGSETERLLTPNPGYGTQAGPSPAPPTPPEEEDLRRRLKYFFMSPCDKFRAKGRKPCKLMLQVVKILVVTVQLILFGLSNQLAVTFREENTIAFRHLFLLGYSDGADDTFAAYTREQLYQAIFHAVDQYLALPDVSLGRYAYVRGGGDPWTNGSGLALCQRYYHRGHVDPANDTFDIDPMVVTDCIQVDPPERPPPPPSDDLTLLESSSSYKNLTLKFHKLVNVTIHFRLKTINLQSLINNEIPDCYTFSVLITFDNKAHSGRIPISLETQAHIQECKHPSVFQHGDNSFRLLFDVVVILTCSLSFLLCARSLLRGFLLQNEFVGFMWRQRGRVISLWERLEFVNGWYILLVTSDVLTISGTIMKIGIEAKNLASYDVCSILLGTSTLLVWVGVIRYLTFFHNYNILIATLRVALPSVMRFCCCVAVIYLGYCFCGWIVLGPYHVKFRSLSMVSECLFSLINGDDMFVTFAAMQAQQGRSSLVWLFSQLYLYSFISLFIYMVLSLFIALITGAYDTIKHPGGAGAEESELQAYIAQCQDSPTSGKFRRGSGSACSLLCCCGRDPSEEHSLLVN
#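 Kinetic FDSS Ca2+ read in Tet-induced TRPML1-DL cells (ABD Ca8 dye plus quencher, 45-90 min RT loading): baseline, then compound, then 110 s agonist window; EC80 agonist 54-4 at 4uM final added afterwards for a 110 s antagonist window.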
# TRPML1 inh = qHTS for Inhibitors of the Human Mucolipin Transient Receptor Potential 1 (TRPML1) | AID 624415, 2012 | activity change, negative = inhibition, % (test concentration not listed) | Mucolipin-1 (Homo sapiens), Q9GZU1 | 390,000 tested, 0.02% active | TRPML1-inducible cells, Ca2+ dye fluorescence, FDSS; active compounds read low; inhibition of EC80 agonist-evoked calcium signal; in the data active means activity change below about -50%; inconclusive means about -30% to -50%; inactive means above about -30%;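 note: stimulus is agonist 54-4 at its EC80 concentration; % is set by controls: 0 for no effect and ±100 for the full control effect; compound concentration not given in the record; the text of the record puts the active cut at -80%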
#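 Tet-induced TRPML1-DL cells loaded with Ca8 no-wash calcium dye were read kinetically on FDSS. Compound addition was followed by EC80 agonist 54-4 (4 uM final); inhibition was read over 110 s.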
# Six1-Eya2 blk = qHTS Assay for Inhibitors of the Six1/Eya2 Interaction | AID 651725, 2012 | AlphaScreen GST-Six1/His-Eya2 binding, biochemical; active compounds read low; control for the full effect not named in the record | activity change, % (no concentration beside the values) | 360,000 tested, 0.56% active; in the data active = activity change below about -65%; inconclusive = about -30% to -65%; inactive = above about -30%; note: % is set by controls: 0 for no effect and ±100 for the full control effect
#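 Compounds are tested against tagged Six1 and Eya2 proteins bridged by glutathione donor and nickel acceptor beads; after a one-hour incubation at 37 °C without light, AlphaScreen emission is recorded.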
# CtBP-E1A inh = qHTS Assay for Inhibitors of the CtBP/E1A Interaction; 340,000 tested, 0.49% active; AlphaScreen GST-E1A/His-CtBP binding, 1536-well; active compounds read low; control for the full effect not named in the record; AID 651724, 2012; CtBP / adenovirus E1A interaction (AlphaScreen); activity change, % (no concentration beside the values); in the data active means activity change below about -65%; inconclusive means about -30% to -65%; inactive means above about -30%; note: % is set by controls: 0 for no effect and ±100 for the full control effect
#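 Steps: dispense buffer (Tris pH 8.0, NaCl 300 mM, TCEP 1 mM, BSA, Tween 20); add 5X protein mix (GST-E1A, His-CtBP, 125 nM each); pin 23 nL compound; 2 h at 37 °C, dark; add 5X beads (50 ug/mL); 1 h; read.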
# D2 PAM = Beta-Arrestin HTS for Positive Allosteric Modulators of the Human D2 Dopamine Receptor: Potentiators. D(2) dopamine receptor (Homo sapiens), P14416. DiscoveRx D2 beta-arrestin cells, luminescence, 90 min; 100% = 57 uM dopamine signal. potentiation, % (concentration not given with the values). 360,000 tested, 0.23% active. AID 624464, 2012; active = potentiation of 50% or more; inconclusive = 30% to 50%; inactive = 30% or less;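 note: compound concentration not given in the record; tested on top of an EC20 dose of dopamine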
# Target sequence (P14416 whole entry, looked up): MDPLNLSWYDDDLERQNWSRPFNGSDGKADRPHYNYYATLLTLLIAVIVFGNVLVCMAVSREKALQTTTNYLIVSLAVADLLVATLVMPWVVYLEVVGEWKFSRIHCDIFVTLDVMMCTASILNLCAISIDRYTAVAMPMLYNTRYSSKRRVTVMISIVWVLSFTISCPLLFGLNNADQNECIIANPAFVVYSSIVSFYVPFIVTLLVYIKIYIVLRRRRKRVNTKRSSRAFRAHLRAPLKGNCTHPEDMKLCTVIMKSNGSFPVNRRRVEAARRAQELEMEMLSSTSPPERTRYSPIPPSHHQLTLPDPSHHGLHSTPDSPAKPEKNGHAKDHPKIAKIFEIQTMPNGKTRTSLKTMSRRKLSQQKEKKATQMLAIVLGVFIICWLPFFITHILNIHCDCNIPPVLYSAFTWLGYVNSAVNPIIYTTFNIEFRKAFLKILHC
#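 PathHunter beta-arrestin assay in DiscoveRx D2 cells. Compounds were added with an EC20 of dopamine (50 nM final) for 90 min at 37 deg C. Luminescence was read 1 h after detection reagent, with 57 uM dopamine as the EC100 control.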
# Active calls of the source: *; ? = inconclusive; . = no result given.
# Key to letters: A = TRPV1 PAM; B = TRPML1 agonist; C = TRPML1 inh; D = Six1-Eya2 blk; E = CtBP-E1A inh; F = D2 PAM
CSc1nccn1C(=O)c1ccccc1[N+](=O)[O-]
  A: 0.4	B: 0.2	C: -5.9	D: 7.9	E: -10.1	F: 0.3

Cc1ccc(N2CC(NC(=O)C(=O)c3c(C)[nH]c4ccccc34)CC2=O)cc1 (stereo not drawn)
  A: -5.3	B: 0.1	C: 9.9	D: -0.4	E: 1.1	F: 14.2

N#CCCn1cc(/C=N/N=C2\NC(=O)C(CC(=O)O)S2)c(-c2ccc(F)cc2)n1 (stereo not drawn)
  A: -35.6	B: 0.5	C: -4.9	D: -11.0	E: -5.9	F: -6.3

CSCCC(NS(=O)(=O)c1ccc(C)cc1)C(=O)N1CCCCCCC1 (stereo not drawn)
  A: -17.2	B: 2.5	C: 10.0	D: -0.5	E: -0.2	F: -11.3

Cc1nn(-c2cc(C(F)(F)F)ccn2)c(=O)o1
  A: 17.8	B: 4.5	C: 17.3	D: -3.0	E: -1.2	F: -5.0

C/C(=N\NC(=O)c1cc(-c2ccc(C)s2)[nH]n1)c1ccncc1
  A: 1.9	B: 2.8	C: 22.6	D: -7.3	E: -1.3	F: -3.9

CCCCNC(=S)NNC(=O)C12CC3CC(CC(C3)C1)C2
  A: 1.0	B: 0.1	C: 7.3	D: 0.3	E: 4.8	F: 4.7

COc1ccc(CNC(=O)C2(C)Cc3c(-c4ccc(N(C)C)cc4)ccnc3O2)cc1OC (stereo not drawn)
  A: .	B: -1.2	C: .	D: -25.7	E: -21.6	F: -5.9

CC1CCCCC1NC(=O)C1CCC(CNS(=O)(=O)c2ccc(F)cc2)CC1 (stereo not drawn)
  A: -1.8	B: 0.2	C: 11.6	D: 2.3	E: 10.1	F: -12.0

O=C(C[n+]1ccc(C(=O)c2ccccc2)cc1)Nc1ccccc1OC(F)F
  A: .	B: -0.3	C: -2.7	D: -3.0	E: 1.2	F: -5.6

Cc1onc(-c2c(F)cccc2Cl)c1-c1nnc(-c2ccc(C(F)(F)F)cc2)o1
  A: 17.5	B: 1.0	C: 2.0	D: 24.3	E: 23.3	F: -5.8

NS(=O)(=O)c1ccc2nc(NC(=O)C3=COCCO3)sc2c1
  A: 2.7	B: -0.6	C: 10.5	D: 4.3	E: 1.7	F: -8.3

Cc1ccc(S(=O)(=O)NC(=O)Nn2c(C)nnc2C)cc1
  A: -20.0	B: -0.4	C: 38.2	D: 0.6	E: -0.2	F: 2.3

O=C(C1=C[C@@H](c2ccccc2)C[C@@H](OCCCCO)O1)N1CCN(Cc2ccc3c(c2)OCO3)CC1
  A: -11.2	B: -0.5	C: 29.2	D: 0.4	E: 2.7	F: -12.1

Nc1ccc(O)cc1C(=O)OCC(=O)c1ccc(C2CCCCC2)cc1
  A: -12.4	B: 0.3	C: -3.7	D: ?	E: -23.3	F: 76.8*

O=C(Nc1nccs1)c1cc(-c2ccccc2)nc2ccccc12
  A: 19.9	B: -0.1	C: 29.8	D: -12.2	E: 0.6	F: -3.1

O=C(CSc1nnc(-c2ccccc2F)n1C1CC1)N1CCCC1
  A: .	B: -0.9	C: 7.5	D: 2.8	E: 3.9	F: -4.6

CCC1CCCCN1CCNC(=O)C1CCN(S(=O)(=O)c2c(C)noc2C)CC1 (stereo not drawn)
  A: -3.4	B: 0.4	C: -4.7	D: 6.1	E: 2.0	F: -20.8

O=C(NC1CCCc2ccccc21)C1CCN(S(=O)(=O)c2ccccc2)CC1 (stereo not drawn)
  A: -17.3	B: 1.8	C: -17.4	D: -4.6	E: 1.1	F: -13.5

COc1ccc(N2CCN(Cc3nc4c(c(=O)[nH]c(=O)n4C)n3Cc3cccc(Cl)c3)CC2)cc1
  A: 19.9	B: -0.7	C: 13.8	D: -21.3	E: -1.6	F: 0.3

O=C(NCc1cccnc1)c1cc(C2CCCN(C(=O)c3cccs3)C2)on1 (stereo not drawn)
  A: .	B: -0.6	C: .	D: 0.2	E: 2.2	F: -12.7

O=C(Cc1ccccc1)N1CCN(C(=O)c2ccc([N+](=O)[O-])cc2)CC1
  A: 2.7	B: -0.5	C: 11.7	D: 1.3	E: ?	F: -1.9

Cc1cc(C(=O)COC(=O)c2n[nH]c(=O)c3ccccc23)c(C)n1C(C)C
  A: -1.9	B: 3.5	C: 24.5	D: -20.9	E: ?	F: -0.6

CCc1cccc(C)c1NC(=O)COC(=O)Cc1ccsc1
  A: -6.3	B: 2.6	C: -0.5	D: 4.0	E: 10.5	F: -25.3

Cc1cc(C)c(/C=C(\C#N)S(=O)(=O)c2ccccc2)[nH]1
  A: -2.3	B: 0.8	C: 3.3	D: 5.0	E: -1.9	F: -0.2

# Next section, starting with the last 6 of the part before.
# Key to letters: A = TRPV1 PAM; B = TRPML1 agonist; C = TRPML1 inh; D = Six1-Eya2 blk; E = CtBP-E1A inh; F = D2 PAM
COc1ccc(N2CCN(Cc3nc4c(c(=O)[nH]c(=O)n4C)n3Cc3cccc(Cl)c3)CC2)cc1
  A: 19.9	B: -0.7	C: 13.8	D: -21.3	E: -1.6	F: 0.3

O=C(NCc1cccnc1)c1cc(C2CCCN(C(=O)c3cccs3)C2)on1 (stereo not drawn)
  A: .	B: -0.6	C: .	D: 0.2	E: 2.2	F: -12.7

O=C(Cc1ccccc1)N1CCN(C(=O)c2ccc([N+](=O)[O-])cc2)CC1
  A: 2.7	B: -0.5	C: 11.7	D: 1.3	E: ?	F: -1.9

Cc1cc(C(=O)COC(=O)c2n[nH]c(=O)c3ccccc23)c(C)n1C(C)C
  A: -1.9	B: 3.5	C: 24.5	D: -20.9	E: ?	F: -0.6

CCc1cccc(C)c1NC(=O)COC(=O)Cc1ccsc1
  A: -6.3	B: 2.6	C: -0.5	D: 4.0	E: 10.5	F: -25.3

Cc1cc(C)c(/C=C(\C#N)S(=O)(=O)c2ccccc2)[nH]1
  A: -2.3	B: 0.8	C: 3.3	D: 5.0	E: -1.9	F: -0.2

Cc1c(C(=O)N2CCN(CCc3ccccc3)CC2)oc2ccccc12
  A: -1.1	B: -0.2	C: 16.2	D: -4.5	E: 0.4	F: -15.6

CCOc1ccc(C(C(=O)NCC2CCCO2)N(C(=O)c2snc(C(N)=O)c2N)c2ccc(F)cc2)cc1 (stereo not drawn)
  A: 1.7	B: 2.0	C: 10.9	D: 2.6	E: 1.6	F: -6.4

O=C(CSc1nc2cc(Cl)ccc2s1)NCc1ccc2c(c1)OCO2
  A: 4.7	B: 3.2	C: 5.7	D: 12.2	E: 8.6	F: -12.9

Nc1c(C(=O)c2ccccc2)sc2nsc(SCCN3CCCC3)c12
  A: 0.1	B: ?	C: -18.3	D: 25.9	E: 7.5	F: -14.7

CS(=O)(=O)N(CC(=O)N1CCCC1)c1cccc(Cl)c1Cl
  A: 9.5	B: 0.4	C: -2.6	D: 5.9	E: 4.3	F: 8.2

C/C(=N\NC(=S)Nc1cc(S(=O)(=O)N2CCOCC2)ccc1Cl)c1ccccc1F
  A: 17.5	B: 0.6	C: 1.5	D: -10.5	E: -17.2	F: -31.0

CC(C)(C)Nc1ncnc2sc(-c3ccccc3)cc12
  A: -7.0	B: 2.5	C: 45.6	D: 8.3	E: -1.6	F: -15.4

CN(Cc1cccs1)C(=O)CSc1nc2ccccc2[nH]1
  A: -15.0	B: 0.3	C: 20.2	D: 1.3	E: .	F: -7.6

Cc1ccc(C)c(S(=O)(=O)Nc2ccc(C(=O)NCCCN3CCOCC3)cc2)c1
  A: -11.7	B: -0.1	C: -7.8	D: 8.3	E: 0.9	F: -1.7

CCOC(=O)c1sc(Nc2nc(C)cc(OC)n2)nc1C
  A: -15.5	B: 0.7	C: 0.3	D: 2.8	E: -8.8	F: -7.3

Cc1ccc(-c2csc3ncnc(Nc4ccc(N5CCOCC5)cc4)c23)cc1
  A: 8.4	B: -0.8	C: 35.4	D: ?	E: ?	F: -8.2

O=[N+]([O-])c1cc(CN2CCCC2)c2cccnc2c1O
  A: 28.6	B: -1.2	C: -9.9	D: -79.3*	E: -1.0	F: 29.2

Cc1ccnn1CC(=O)N/N=C/c1ccco1
  A: 2.6	B: 0.1	C: 7.0	D: -1.0	E: 5.5	F: -25.8

Cc1[nH]ccc(=O)c1Cc1c(Cl)cccc1Cl
  A: 10.0	B: 0.8	C: -18.7	D: -1.4	E: 9.1	F: -2.1

CCN1/C(=C/C=C/c2oc3ccc4ccccc4c3[n+]2CC)Oc2ccc3ccccc3c21
  A: 2.9	B: 63.0*	C: 0.6	D: 6.5	E: 3.0	F: 0.4

O=C(CNC(=O)C12CC3CC(CC(C3)C1)C2)OCC(=O)N1CCCCC1
  A: -6.5	B: 0.4	C: 6.6	D: 18.9	E: 22.8	F: -16.1

COCCNC(=S)NN(c1ccccc1)c1ccccc1
  A: 7.3	B: 1.3	C: -9.7	D: 7.7	E: -5.1	F: -3.2

Cn1c(SCC(=O)N2CCN(S(=O)(=O)c3ccc(Cl)cc3)CC2)nc2ccccc21
  A: 6.3	B: 0.8	C: 7.8	D: -5.2	E: -1.1	F: -11.7

O=C(CSc1nnc(CNC(=O)c2ccccc2)o1)NCc1ccc2c(c1)OCO2
  A: 8.5	B: -0.6	C: -1.2	D: 6.5	E: 7.8	F: -18.0

COc1cccc(-c2cc(C(=O)N3CCN(C(=O)c4ccco4)CC3)on2)c1
  A: 15.8	B: -1.4	C: -5.1	D: -5.8	E: 0.0	F: -12.9

O=C(CCNC(=O)c1ccccc1Cl)NN1C(=O)NC2(CCCCC2)C1=O
  A: -5.9	B: -0.2	C: -7.5	D: 1.1	E: 7.3	F: 16.4

CCc1nnc(NC(=O)CSc2ccc(Cl)cc2)s1
  A: 6.1	B: 1.6	C: 7.1	D: 3.6	E: 5.8	F: -24.2

CCOC(=O)C1=CNS(=O)(=O)NC1CCc1ccccc1 (stereo not drawn)
  A: .	B: -0.8	C: -4.2	D: -0.2	E: 10.9	F: .

CCCCOc1ccc(-c2nnn(C(C)(C)C(=O)OC)n2)cc1
  A: -12.7	B: 2.9	C: -10.9	D: 47.3	E: 33.9	F: -12.1

Cc1cc(=O)nc2c3ccccc3n(C(C)C(=O)NCCC(C)C)n12 (stereo not drawn)
  A: -4.6	B: .	C: .	D: 1.2	E: 11.1	F: 0.1

COc1ccc(CC(=O)NCc2ccccc2)cc1
  A: -8.3	B: 0.5	C: -20.9	D: 6.0	E: -9.1	F: -3.6

O=[N+]([O-])c1ccccc1S(=O)(=O)N1CCSCC1
  A: 2.9	B: 3.5	C: -13.2	D: 4.5	E: -3.1	F: -1.6

# Looked up above:
# CCc1nnc(NC(=O)CSc2ccc(Cl)cc2)s1 @ TRPML1 agonist = 1.6
# CS(=O)(=O)N(CC(=O)N1CCCC1)c1cccc(Cl)c1Cl @ TRPML1 agonist = 0.4

# High-throughput results (PubChem BioAssay)
